RN4220 kill = growth inhibition of S. aureus RN4220, primary screen, OD600. 16 h. inhibition, % (no concentration beside the values). 330,000 tested, 0.33% active. AID 1259311, 2017;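 active = z-score of -3 or lower and OD600 up to 0.18 on both plates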;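 also: plate controls were untreated cells for no effect and reference antibiotic for full effect; stock transfer was 100 nL into about 80 µL; one replicate is shown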
Autofluor counter = flagged as autofluorescent in microsphere protease counterscreen | compound autofluorescence counterscreen, microsphere flow cytometry; active compounds read high | fluorescence intensity (concentration not given with the values) | 360,000 tested, 3.1% active | AID 624483;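 active = at least 3 SD above the mean of all compounds, about 16000 in these data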;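 also: 100 nL of 1 mM stock went into each well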
ugtP null kill = growth inhibition of ugtP-null S. aureus, primary screen, RN4220 ugtP deletion, OD600. 16 h; some inactives read as strong as hits. AID 1259309, 2017. growth inhibition, % (concentration not given with the values). 330,000 tested, 0.54% active;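 active = z-score under -3 and OD600 up to 0.15 on both plates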;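 also: plate controls were untreated wells for no effect and antibiotic for full effect; wells of about 80 µL received 100 nL stock; the first replicate is given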
PrP 5UTR inh = inhibition of PrP 5' UTR reporter expression; cell-based PrP 5' UTR mRNA reporter, plate reader; inhibition, % (test concentration not listed); 340,000 tested, 0.35% active;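 active = every replicate at 50% or more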;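 also: 0 = median of the neutral control wells; tested in H4 reporter cells; numbers are from one replicate; inactives centre near -14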
BJeLR viability = MLPCN primary cell-based screen for lethality selective to Ras in HRASV12 cells | inhibition, % (concentration not given with the values) | BJeLR (HRASV12) viability, CellTiter-Glo ATP luminescence, 48 h; reference of the scale not given here | AID 1554, 2009 | 300,000 tested, 0.17% active;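 active = replicate mean above 50%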;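 also: 50 nL library stock added to about 25 µL; numbers are from one replicate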
Mtb hypoxia rep = PubChem AID 1159583. M. tuberculosis hypoxia-regulated fluorescent reporter, fluorescence. fluorescence inhibition, % (no concentration beside the values). 300,000 tested, 0.1% active;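 active = 35 to 45% if threefold the growth effect, above 45% if 1.5-fold the growth effect; inactive = the rest, general growth blockers included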;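 also: wells of about 50 µL received 100 nL stock; 0% = vehicle wells and 100% = reference inhibitor wells; whole bacteria with a GFP reporter of the hypoxia response; strong numbers were not always called active; many hits fall short of the cut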
Mtb hypoxia rep growth = also measured in Mtb hypoxia rep; calls as there; growth inhibition, %; measured here: M. tuberculosis growth (absorbance);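 0% = vehicle and 100% = reference antibiotic; read after six days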
* = called active by the depositor.

Results for CC(OC(=O)c1ccc(-c2ccc([N+](=O)[O-])cc2)o1)C(=O)NC(N)=O (stereo unspecified) ?
RN4220 kill: 6.6; Autofluor counter: 5233; ugtP null kill: 1; PrP 5UTR inh: -20; BJeLR viability: 7; Mtb hypoxia rep: 15; Mtb hypoxia rep growth: 8

Results for Cc1ccc2cccc(OCCCOc3ccccc3F)c2n1 ?
RN4220 kill: 9.3; Autofluor counter: 4093; ugtP null kill: 8; PrP 5UTR inh: -12; BJeLR viability: -15; Mtb hypoxia rep: 0; Mtb hypoxia rep growth: 9

How did O=C(Cn1nnc(-c2ccccc2F)n1)Nc1cccc2ncccc12 do in these assays?
RN4220 kill: -6.7; Autofluor counter: 4168; ugtP null kill: 0; PrP 5UTR inh: -12; BJeLR viability: 12; Mtb hypoxia rep: 12; Mtb hypoxia rep growth: 10

What do the screens show for `COc1ccccc1NC(=S)NCc1ccc2c(c1)OCO2`?
RN4220 kill: 4.3; Autofluor counter: 2502; ugtP null kill: 0; PrP 5UTR inh: -7; BJeLR viability: 12; Mtb hypoxia rep: -8; Mtb hypoxia rep growth: 2

Results for CCOC(=O)CN1C(=O)N(CC(=O)OCC)C(c2ccccc2)(c2ccccc2)C1=O ?
Autofluor counter: 3140; PrP 5UTR inh: 1; BJeLR viability: -1

Results for CCCOC(=O)c1c(N)sc(C(=O)OCC)c1C ?
RN4220 kill: 6.6; Autofluor counter: 6636; ugtP null kill: 14; PrP 5UTR inh: -25; BJeLR viability: 6; Mtb hypoxia rep: 11; Mtb hypoxia rep growth: 11

What do the screens show for `CC1CCCN(CCCNC(=O)c2cn(C)c3ccc(S(=O)(=O)N(C)C4CCCCC4)cc3c2=O)C1` (stereo unspecified)?
RN4220 kill: 1.4; Autofluor counter: 5434; ugtP null kill: 3; PrP 5UTR inh: -9; BJeLR viability: 5; Mtb hypoxia rep: 8; Mtb hypoxia rep growth: 11

Results for Cc1csc(NC(=O)Cc2ccc(Cl)cc2)n1 ?
RN4220 kill: 1.9; Autofluor counter: 4782; ugtP null kill: 9; PrP 5UTR inh: -39; BJeLR viability: -7; Mtb hypoxia rep: 21; Mtb hypoxia rep growth: 12

What do the screens show for `CCOC(=O)N1CCN(C(=S)Nc2ccc(C)c(C)c2)CC1`?
RN4220 kill: 2.5; Autofluor counter: 2583; ugtP null kill: 2; PrP 5UTR inh: -3; BJeLR viability: 1; Mtb hypoxia rep: 10; Mtb hypoxia rep growth: 1

How did Oc1csc(Cc2nc(-c3ccc(-c4ccccc4)cc3)cs2)n1 do in these assays?
RN4220 kill: 5.8; Autofluor counter: 3671; ugtP null kill: -4; PrP 5UTR inh: -37; BJeLR viability: 2; Mtb hypoxia rep: 6; Mtb hypoxia rep growth: 7

How did O=c1c2c(nc3nc(Cc4ccccc4)[nH]n13)CCC2 do in these assays?
RN4220 kill: 8.7; Autofluor counter: 3371; ugtP null kill: 8; PrP 5UTR inh: 10; BJeLR viability: -6

Results for Cc1nn(CC(=O)OCC(=O)NCCc2ccc(S(N)(=O)=O)cc2)c(C)c1[N+](=O)[O-] ?
RN4220 kill: 2.7; Autofluor counter: 3957; ugtP null kill: 3; PrP 5UTR inh: -14; Mtb hypoxia rep: 9; Mtb hypoxia rep growth: 5

How did O=Cc1ccc(OCc2cn3ccccc3n2)cc1 do in these assays?
RN4220 kill: 11; Autofluor counter: 4750; ugtP null kill: 5; PrP 5UTR inh: -46; BJeLR viability: 0; Mtb hypoxia rep: -4; Mtb hypoxia rep growth: -4

What do the screens show for `CC(Sc1nnc(N)s1)C(=O)Nc1ccc2c(c1)OCO2` (stereo unspecified)?
RN4220 kill: -3.0; Autofluor counter: 4030; ugtP null kill: -9; PrP 5UTR inh: 6; Mtb hypoxia rep: -6; Mtb hypoxia rep growth: -2

Results for COc1cc(C=NNP(=S)(c2ccccc2)c2ccccc2)ccc1O ?
RN4220 kill: 7.6; ugtP null kill: 3; Mtb hypoxia rep: 3; Mtb hypoxia rep growth: 3

Results for Cc1cc(C)cc(NC(=O)CN2CCN(c3ncccn3)CC2)c1 ?
RN4220 kill: -2.2; Autofluor counter: 22652*; ugtP null kill: -3; PrP 5UTR inh: -16; BJeLR viability: -3; Mtb hypoxia rep: -3; Mtb hypoxia rep growth: -9

How did O=C(O)c1ccccc1NS(=O)(=O)c1ccc(NN=Cc2ccccc2F)c([N+](=O)[O-])c1 do in these assays?
RN4220 kill: 5.0; Autofluor counter: 2962; ugtP null kill: 92*; PrP 5UTR inh: 4; Mtb hypoxia rep: 6; Mtb hypoxia rep growth: 0

Results for COC(=O)c1ccc(C)c(NC(=O)c2ccc(Cl)c([N+](=O)[O-])c2)c1 ?
RN4220 kill: 2.2; Autofluor counter: 2408; ugtP null kill: 7; PrP 5UTR inh: -20; BJeLR viability: -5; Mtb hypoxia rep: 1; Mtb hypoxia rep growth: 3

How did O=C(/C=C/c1ccccc1)N1CCN(CCN2C(=O)c3cccc4cccc(c34)C2=O)CC1 do in these assays?
RN4220 kill: 83; Autofluor counter: 2132; ugtP null kill: 98*; PrP 5UTR inh: -17; BJeLR viability: 0; Mtb hypoxia rep: -3; Mtb hypoxia rep growth: 31

Results for Cc1cccn2c(=O)c(C=Nc3ccc(Cl)cc3)c(NCCO)nc12 ?
RN4220 kill: 3.3; Autofluor counter: 21575*; ugtP null kill: 3; PrP 5UTR inh: -42; BJeLR viability: 1; Mtb hypoxia rep: 3; Mtb hypoxia rep growth: 5

Results for O=C(COC(=O)c1ccc(Cl)nc1)Nc1ccccc1OC(F)F ?
RN4220 kill: 1.1; Autofluor counter: 5122; ugtP null kill: 1; PrP 5UTR inh: -17; BJeLR viability: 5; Mtb hypoxia rep: -4; Mtb hypoxia rep growth: 5

How did CCCNC(=S)N1CC2(C)CN(C(=O)C(=O)OC)CC(C)(C1)C2=O do in these assays?
RN4220 kill: 6.7; Autofluor counter: 5073; ugtP null kill: 4; PrP 5UTR inh: -28; BJeLR viability: -4; Mtb hypoxia rep: 2; Mtb hypoxia rep growth: 0

How did CC1(C)CC(=O)C(C=NCCN2CCN(C(=O)NC34CC5CC(CC(C5)C3)C4)CC2)=C(O)C1 do in these assays?
RN4220 kill: -0.9; Autofluor counter: 2544; ugtP null kill: -2; PrP 5UTR inh: 0; BJeLR viability: -1

How did O=C(NC1CCCCCC1)c1ccc2c(=O)n3c(nc2c1)CCCCC3 do in these assays?
RN4220 kill: 1.0; Autofluor counter: 4299; ugtP null kill: 5; PrP 5UTR inh: -102; BJeLR viability: 8

Results for COCc1cc(C)n(CC(=O)Nc2ccc(Cl)cc2Cl)c(=O)c1C#N ?
RN4220 kill: -1.3; Autofluor counter: 4968; ugtP null kill: 2; PrP 5UTR inh: -3; BJeLR viability: 3

What do the screens show for `Cc1cc(-c2nnc(SCc3ccccn3)o2)no1`?
RN4220 kill: 1.4; Autofluor counter: 7947; ugtP null kill: 5; PrP 5UTR inh: -27; BJeLR viability: 7; Mtb hypoxia rep: 22; Mtb hypoxia rep growth: 10

Results for O=c1cc(N2CCc3ccccc32)[nH]c(=O)n1-c1ccc(Br)cc1 ?
RN4220 kill: 0.0; Autofluor counter: 4337; ugtP null kill: 3; PrP 5UTR inh: -3; BJeLR viability: 5; Mtb hypoxia rep: -7; Mtb hypoxia rep growth: -9

How did Cc1cc(C(F)(F)F)nc(SCC(=O)NC2CCCCC2)n1 do in these assays?
RN4220 kill: 3.9; Autofluor counter: 3054; ugtP null kill: 9; PrP 5UTR inh: -22; BJeLR viability: 3; Mtb hypoxia rep: 7; Mtb hypoxia rep growth: 6

Results for O=C(c1ccc(Cl)c(S(=O)(=O)N2CCCCCC2)c1)N1CCOCC1 ?
RN4220 kill: 3.2; Autofluor counter: 4287; ugtP null kill: 0; PrP 5UTR inh: -21; BJeLR viability: 4; Mtb hypoxia rep: 0; Mtb hypoxia rep growth: 12

How did CCC(CO)n1c(SCc2cc([N+](=O)[O-])cc3c2OCOC3)nc2ccccc2c1=O (stereo unspecified) do in these assays?
RN4220 kill: 17; Autofluor counter: 2532; ugtP null kill: 27; PrP 5UTR inh: -9; BJeLR viability: -16; Mtb hypoxia rep: 2; Mtb hypoxia rep growth: 7

Results for Cc1ccnc2nc(C(=O)OCC(=O)c3ccccc3)nn12 ?
RN4220 kill: 4.7; Autofluor counter: 3792; ugtP null kill: 5; PrP 5UTR inh: -24; Mtb hypoxia rep: 4; Mtb hypoxia rep growth: 2

What do the screens show for `COc1ccc(/C=N/NC(=O)c2ccoc2C)cc1COc1c(C)cccc1C`?
Autofluor counter: 2821; PrP 5UTR inh: -14; BJeLR viability: 30

Results for O=C(Nc1ccccc1)/C(=C/c1ccc2c(c1)OCO2)NC(=O)c1ccco1 ?
RN4220 kill: 4.5; Autofluor counter: 2508; ugtP null kill: -3; PrP 5UTR inh: -30; BJeLR viability: -5; Mtb hypoxia rep: 5; Mtb hypoxia rep growth: 6

What do the screens show for `Cc1ccc(C)n1-c1cccc(S(=O)(=O)N2CCOCC2)c1`?
RN4220 kill: 3.8; Autofluor counter: 2597; ugtP null kill: -1; PrP 5UTR inh: -33; BJeLR viability: 1; Mtb hypoxia rep: 3; Mtb hypoxia rep growth: 7

How did O=C(NCc1ccco1)c1ccc(COc2cccc3ccccc23)cc1 do in these assays?
RN4220 kill: -0.6; Autofluor counter: 2425; ugtP null kill: -11; PrP 5UTR inh: -13; BJeLR viability: 8; Mtb hypoxia rep: 11; Mtb hypoxia rep growth: 12

Results for CC(=O)N(C)c1ccc(NS(=O)(=O)c2cccc3nsnc23)cc1 ?
RN4220 kill: -1.6; Autofluor counter: 3679; ugtP null kill: 12; PrP 5UTR inh: -22; BJeLR viability: 23; Mtb hypoxia rep: 12; Mtb hypoxia rep growth: 4

What do the screens show for `COc1ccc2oc(C(=O)OCC(=O)NCc3ccccc3OC)c(C)c2c1`?
RN4220 kill: 1.4; Autofluor counter: 6457; ugtP null kill: -9; PrP 5UTR inh: 4; BJeLR viability: -14; Mtb hypoxia rep: -23; Mtb hypoxia rep growth: -4

How did CCCc1cc(=O)oc2cc(OC3CCCCC3=O)ccc12 (stereo unspecified) do in these assays?
RN4220 kill: 1.1; Autofluor counter: 3893; ugtP null kill: 6; PrP 5UTR inh: -9; BJeLR viability: -1; Mtb hypoxia rep: 4; Mtb hypoxia rep growth: 4

Results for COc1cccc(CC(NC(C)=O)C(=O)NC2CCN(C(=O)c3ccc(Cl)cc3)CC2)c1OC (stereo unspecified) ?
Autofluor counter: 4072; PrP 5UTR inh: -8; BJeLR viability: -7

Results for CN(c1ccccc1)S(=O)(=O)c1ccc(Cl)c(C(=O)Nc2ccccc2N2CCOCC2)c1 ?
RN4220 kill: -0.2; ugtP null kill: 3; PrP 5UTR inh: -11; Mtb hypoxia rep: 0; Mtb hypoxia rep growth: -4

Results for CC(C)c1cc(C(C)C)c(S(=O)(=O)NNC(=O)c2ccncc2)c(C(C)C)c1 ?
RN4220 kill: 12; Autofluor counter: 9003; ugtP null kill: -7; PrP 5UTR inh: -14; BJeLR viability: 17; Mtb hypoxia rep: 4; Mtb hypoxia rep growth: 10

How did CN(C1=NS(=O)(=O)c2ccccc21)c1ccc(OC(=O)c2ccccc2)cc1 do in these assays?
RN4220 kill: -2.3; Autofluor counter: 4396; ugtP null kill: 8; PrP 5UTR inh: -6; BJeLR viability: -4; Mtb hypoxia rep: -2; Mtb hypoxia rep growth: -6

Results for O=C(NCCCN1CCOCC1)C1(c2ccccc2)CCCC1 ?
RN4220 kill: -8.2; Autofluor counter: 2998; ugtP null kill: -3; PrP 5UTR inh: -16; BJeLR viability: -1; Mtb hypoxia rep: 15; Mtb hypoxia rep growth: 14

By substructure: the entries above with an NH in an aromatic ring.
How did O=c1c2c(nc3nc(Cc4ccccc4)[nH]n13)CCC2 do in these assays?
RN4220 kill: 8.7; Autofluor counter: 3371; ugtP null kill: 8; PrP 5UTR inh: 10; BJeLR viability: -6

Results for O=c1cc(N2CCc3ccccc32)[nH]c(=O)n1-c1ccc(Br)cc1 ?
RN4220 kill: 0.0; Autofluor counter: 4337; ugtP null kill: 3; PrP 5UTR inh: -3; BJeLR viability: 5; Mtb hypoxia rep: -7; Mtb hypoxia rep growth: -9
